# HCMV NEC inh = inhibitors of HCMV UL50-UL53 nuclear egress complex interaction; inhibition, % (no concentration beside the values); HTRF UL50-UL53 interaction, normalized percent inhibition; AID 1918969; actives 0.15% (n = 190,000);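 active = both replicates at 50% or more, plus weaker picks with an unusually low signal ratio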;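 also: stock transfer was 100 nL into about 20 µL; 0% = negative control wells and 100% = wells with untagged competitor protein; inactives centre near -12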
# The depositor's hits bear a star; & = joins results of further samples. Only part of the results is shown (hit frequency here may not be typical).
canonical_smiles,HCMV NEC inh
Cc1ccccc1CC(=O)c1ccc(O)cc1O,4
CCOc1ccc(-c2c(C#N)c(N)nc(SCC#N)c2C#N)cc1,-11
NCCCC[C@@H]1NC(=O)[C@@H]2C[C@H](NC(=O)c3sccc3Cl)CN2C1=O,-15
CS(=O)(=O)N1CCSC1c1ccccc1Cl (centres undefined),-15
NC(=NCCCCCCN=C(N)N=C(N)Nc1ccc(Cl)cc1)N=C(N)Nc1ccc(Cl)cc1,4
CC/C=C\C/C=C\C/C=C\CCCCCCCCCC(=O)O,-22&-22&-16
C=CCn1nnnc1SCC(=O)Nc1ccccc1,1
COc1ccc(N2CS(=O)(=O)CC2=O)cc1,3
CCCC[P+](CCCC)(CCCC)Cc1ccc(NC(=O)[C@@H](Cc2ccc3ccccc3c2)NC(=NC2CCCCC2)NC2CCCCC2)cc1,-11
O=C1N[C@@H]2[C@@H](O)[C@@H](O)[C@H](O)[C@@H](CO)N2C1=O,-11&-11
O=C(NCc1ccc2c(c1)OCO2)C1(S(=O)(=O)c2ccccc2)CC1,6
O=C(Oc1c(Br)cc(Cl)c2cccnc12)N1CCOCC1,-8
CN([C@@H](Cc1ccc(OS(=O)(=O)c2cccc3cnccc23)cc1)C(=O)N1CCN(c2ccccc2)CC1)S(=O)(=O)c1cccc2cnccc12,-6&-6
CCCN(CCC)C(=O)CCn1c(=O)oc2ccccc21,2
CC(C)Cn1c(COc2ccccc2)nc2ccccc21,4
Cc1cccnc1NC(=O)C(F)(F)F,-3
COC1CN(Cc2cn(C)c3ccccc23)CC(=O)N(Cc2ccccc2)C1 (centres undefined),-4
O=C(N/C(=C/c1cccs1)C(=O)N1CCCC1)c1ccccc1,-27
C=CCNc1oc(Cc2cccc3ccccc23)nc1C#N,2
Cc1ccccc1-n1cc(-c2ccnc(NCc3nnc4n3CCCC4)n2)cn1,-1

# Two neighbouring records from above, for reference:
canonical_smiles,HCMV NEC inh
Cc1cccnc1NC(=O)C(F)(F)F,-3
COC1CN(Cc2cn(C)c3ccccc23)CC(=O)N(Cc2ccccc2)C1 (centres undefined),-4

# Returning to the listing; the 5 compounds before the break are reprinted first.
canonical_smiles,HCMV NEC inh
Cc1cccnc1NC(=O)C(F)(F)F,-3
COC1CN(Cc2cn(C)c3ccccc23)CC(=O)N(Cc2ccccc2)C1 (centres undefined),-4
O=C(N/C(=C/c1cccs1)C(=O)N1CCCC1)c1ccccc1,-27
C=CCNc1oc(Cc2cccc3ccccc23)nc1C#N,2
Cc1ccccc1-n1cc(-c2ccnc(NCc3nnc4n3CCCC4)n2)cn1,-1
Nc1c(C(=O)c2ccccc2)sc2nc3c(cc12)C(=O)CCC3,0
O=C1CN(c2ncnc3sccc23)CCN1Cc1ccc(F)cc1,-8
CN(C)S(=O)(=O)c1ccc(C(=O)Nc2sccc2C#N)cc1,-14
N#Cc1ccc(-c2csc(NC(=O)CCc3ccccc3)n2)cc1,-22
C=C1C[C@@H](O)[C@H](/C=C/[C@@H](O)C(C)(C)CCCC)[C@H]1C/C=C\CCCC(=O)O,-18&-18&-21&-21
CC(=O)N=c1sc2cc(S(C)(=O)=O)ccc2n1C,-6
Cc1nc(N2CCC(C)CC2)c2c(C)c(C(=O)N3CCOCC3)sc2n1,-5
CC(O)(CC(=O)O)CC(=O)O,-44
O=c1[nH]nc(SCc2ccccc2)n1-c1ccc(OCc2ccccc2)cc1,-14
O=C(NCc1ccco1)c1ccc(-c2cccc(Cl)c2)o1,1
Cc1nc2ncnn2c(C)c1Cc1cccc(C(F)(F)F)c1,-6
CCCCCCCC/C=C\CCCCCCCCCCCC(=O)O,-20&-20
CC(=O)Nc1ccc(NC(=O)c2ccccc2OC(C)=O)cc1,-5
Cc1ccnc(NC(=O)C2CCCCC2)c1,-16
CCOC(=O)CCN1C(=O)/C(=C/c2ccc(C)cc2)SC1=S,-7
CCC(=O)NCCCc1nc2ccccc2n1Cc1ccccc1C,-4
Cc1oc2cc(O)ccc2c(=O)c1-c1nc2ccccc2s1,-25
CC(=O)NCCCc1nc2ccccc2n1Cc1ccccc1C,-1
O=C(Nc1cccc(C(F)(F)F)c1)C(F)(F)F,7
O=c1c(C(F)(F)F)cccn1Cc1ccccc1,-14

canonical_smiles,HCMV NEC inh
O=C(O)c1ccc(-c2ccccc2Cl)o1,-21
CCCCCCCCCCCCCCCCOC[C@H](COP(=O)([O-])OCC[N+](C)(C)C)OC,-4&-4
CCCCN1C=NS(=O)(=O)c2ccccc21,-10
O=C1NC(=Nc2ccc(F)cc2)S/C1=C/c1ccc2c(c1)OCO2,-12
COc1ccc(CCNC(CC(=O)Nc2ccccc2)C(=O)O)cc1 (centres undefined),-1
CCCCCCC[C@H](O)/C=C/[C@H]1[C@H](O)CC(=O)[C@@H]1C/C=C\CCCC(=O)O,-23&-23
Cc1c(C(=O)Nc2ccc(N3CCC(N4CCOCC4)CC3)c(C#N)c2)cnn1-c1ccc(Cl)cc1,10
Cc1ccc(Oc2ccc(OCC(=O)NCC3CCCO3)cc2)cc1 (centres undefined),-7
O=C(Cc1cccs1)Nc1ccc(N2CCCCC2)cc1,-3
CC1SCC(=O)N(CC(=O)Nc2ccc(F)cc2F)C1=O (centres undefined),-6
CN(c1ncnc2nc[nH]c12)C1CCCCC1,7
CCn1c(CCCNC(=O)c2ccc(OC)c(OC)c2)nc2ccccc21,-10
COc1ccc2c(=O)c(Oc3ccccc3F)c(C)oc2c1,-1
CCOC(=O)c1oc2ccccc2c1NC(=O)c1ccccc1,10
O=C(O)CCCC(=O)Nc1nc(-c2ccccc2)cs1,-6
CCCCC/C=C\C\C=C/C=C/C=C/[C@@H](SC[C@H](N)C(=O)O)[C@@H](O)CCCC(=O)O,-13
Cn1cccc1Cc1nnc(SCC(N)=O)n1-c1ccc(F)cc1,-18
CCCCC/C=C\C/C=C\C/C=C\CC1OC1CCCC(=O)O (centres undefined),-20
COc1c(S(=O)(=O)Nc2cccnc2)ccc(Cl)c1Cl,-11
O=C(Nc1nnc(SCc2cccc(F)c2)s1)C1CCCCC1,-18

canonical_smiles,HCMV NEC inh
CCOC(=O)CSC1=C(C#N)C(c2cccc(Cl)c2Cl)C2=C(CCCC2=O)N1 (centres undefined),-37
CCN1CCN(C(c2cccs2)C(C)NC(=O)c2ccco2)CC1 (centres undefined),13
Cc1ccc(-c2nc3ccccc3s2)cc1S(=O)(=O)N1CCCC1,-6
O=C(O)c1ccccc1C(=O)NCc1ccc2c(c1)OCO2,-4
CSc1nc2ccc(NC(=O)/C=C/c3cccs3)cc2s1,-11
O=C(Nc1ccc(S(=O)(=O)N2CCCC2)cc1)c1ccco1,-1
COC(CNc1ncnc2c1c(-c1ccccc1)cn2-c1ccccc1)OC,-15
COc1ccc(Cl)cc1NC(=O)Nc1cc(C)nc2ccccc12,-10&-2&3
O=C(O)CCC(=O)Nc1cccc2ccccc12,-31
c1ccc2sc(N3CCOCC3)nc2c1,-8
COc1ccc(-c2c(C(F)(F)F)oc3cc(O)ccc3c2=O)cc1,-3
CCN1CCN(S(=O)(=O)/C=C/c2ccccc2)CC1,-4
COC(=O)c1sc2ccccc2c1NC(=O)c1ccccc1,-7
N#CC1=C(SCC(=O)NCc2ccccc2)NC(=O)CC1c1ccco1 (centres undefined),-10
CC1CCN(Cc2ccc(O)c3ncccc23)CC1,-25
Cc1nnc(NC(=O)CSc2nccn2-c2ccccc2)s1,9
Oc1ccccc1C1=CC(c2ccccc2)=Nc2ccccc2N1,-15
CCc1cc(C(=O)OC)c(NC(=O)CC2Sc3ccccc3NC2=O)s1 (centres undefined),8
O=C(O)c1cc(NS(=O)(=O)c2ccc(Br)cc2)ccc1O,2&-13
CC(=O)Nc1ccc(OCC(O)CN2C(C)CCCC2C)cc1 (centres undefined),-2

# Looked up one by one from the list above (six):
canonical_smiles,HCMV NEC inh
O=C(Nc1ccc(S(=O)(=O)N2CCCC2)cc1)c1ccco1,-1
CN([C@@H](Cc1ccc(OS(=O)(=O)c2cccc3cnccc23)cc1)C(=O)N1CCN(c2ccccc2)CC1)S(=O)(=O)c1cccc2cnccc12,-6&-6
Oc1ccccc1C1=CC(c2ccccc2)=Nc2ccccc2N1,-15
O=C(Nc1cccc(C(F)(F)F)c1)C(F)(F)F,7
CC(=O)NCCCc1nc2ccccc2n1Cc1ccccc1C,-1
CCCCN1C=NS(=O)(=O)c2ccccc21,-10

# Carrying on:
canonical_smiles,HCMV NEC inh
c1csc(-c2cc3ccccn3c2)c1,-46
CC(C)CCNc1cc(C(=O)NCCn2ccnc2)cc(S(=O)(=O)Nc2ccccc2)c1,-12
O=C(O)/C=C/c1ccc(S(=O)(=O)Nc2cccnc2)cc1,-28
Cc1[nH]nc(-c2ccc(O)cc2O)c1-c1nc2ccccc2s1,-20
COc1cc(/C=N\S(=O)(=O)c2cccs2)cc(Br)c1O,-19
O=C(O)CCC(=O)Nc1cccc(C(=O)O)c1,-12
O=S(=O)(NCC(c1cccnc1)N1CCOCC1)c1ccccc1 (centres undefined),-10

# Molecules listed so far with a furan ring, fused or not, in the order listed:
canonical_smiles,HCMV NEC inh
O=C(NCc1ccco1)c1ccc(-c2cccc(Cl)c2)o1,1
O=C(O)c1ccc(-c2ccccc2Cl)o1,-21
CCOC(=O)c1oc2ccccc2c1NC(=O)c1ccccc1,10
CCN1CCN(C(c2cccs2)C(C)NC(=O)c2ccco2)CC1 (centres undefined),13
O=C(Nc1ccc(S(=O)(=O)N2CCCC2)cc1)c1ccco1,-1
N#CC1=C(SCC(=O)NCc2ccccc2)NC(=O)CC1c1ccco1 (centres undefined),-10
